ClpP mod: qHTS Assay for Activators of ClpP | ATP-dependent Clp protease proteolytic subunit (Bacillus subtilis (strain 168)), P80244 | purified B. subtilis ClpP, FRET peptide cleavage, 20 min | Potency, µM (titrated, usually from 57.5 µM), without a hit: at the highest dose activity change, negative = active | 340,000 tested, 1.9% active | AID 651965, 2013; active = well fitted falling curve with a large enough effect; inconclusive = small, poorly fitted or top-dose-only effect; inactive = no such curve, though single readings can be large or run the other way; note: the source files actives as falling curves though it sought activators and does not explain the sign; nearly all actives have a fitted effect of over 65% in size; many hits overshoot -100%
Target sequence (P80244 whole entry, looked up): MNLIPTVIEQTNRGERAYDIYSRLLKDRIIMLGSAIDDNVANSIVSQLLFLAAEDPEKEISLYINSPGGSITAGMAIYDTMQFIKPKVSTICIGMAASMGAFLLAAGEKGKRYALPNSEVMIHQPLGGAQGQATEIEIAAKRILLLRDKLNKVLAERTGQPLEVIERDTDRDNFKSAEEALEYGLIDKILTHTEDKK
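Purified B. subtilis ClpP, 10 microg/mL final in Tris/HCl pH8 with KCl, BSA, glycerol and Tween-20, cleaved an Abz/nitrotyrosine-quenched decapeptide. Fluorescence (ex 320, em 430) was read at 0 and 20 min at room temperature. Delta was normalized to 5.8 microM ADEP and DMSO/no-enzyme controls.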
* hit, by the source's call; ? = inconclusive. Potency is the fitted concentration of half-maximal effect. The list is partial; count on the stated rates, not on these rows.

molecule	ClpP mod
COc1cccc(C(C)(O)c2nc(-c3cc4ccccc4o3)cs2)c1 (stereo not drawn)	-1.7%
Cc1ccc(C)c(C(O)c2ncc(-c3ccccc3F)[nH]2)c1 (stereo not drawn)	-1.1%
CC1(C)OC(=O)C2=C(C[C@@H](CCc3ccccc3)O[C@@H]2c2ccc(Cl)cc2)O1	-4.5%
C=CCOc1cccn2c(N(C)C(=O)c3ccncc3)c(CC)nc12	3.8%
O=C(NCCN1CCC(n2c(=O)[nH]c3ccccc32)CC1)c1ccc2ccccc2c1	-4.2%
CC(C)CC(N)c1csc(Nc2ccc(C(=O)NCCCO)cn2)n1 (stereo not drawn)	4.9%
CC(C)(C)c1ccc(S(=O)(=O)N2CCN(c3nc(-c4cccs4)nc4ccccc34)CC2)cc1	?
CCOC(=O)[C@]12CCC=C1N(Cc1ccc(Cl)cc1Cl)C(=O)[C@H](CC(=O)NCCCOC)C2	0.4%
Cc1cc2nc(C(C)(C)C)c(Cc3cccc(F)c3)n2c(C)c1Br	-2.9%
Cc1ccc(S(=O)(=O)N2CC3C(=O)C[C@@H](c4ccccc4)N(S(=O)(=O)c4ccccc4Cl)C3CC2c2ccccc2)cc1 (stereo partly drawn)	2.7%
COc1ccc(-c2nc3ccc(C)cn3c2Cc2cccc(Cl)c2)cc1OC	5.0%
COCc1cccc(-c2csc(C(O)c3ccccc3)n2)c1 (stereo not drawn)	-1.2%

(listing goes on)
molecule	ClpP mod
Cc1ccc(S(=O)(=O)N2C3CCCCC3O[C@H]2CC(=O)c2cccc3ccccc23)cc1 (stereo partly drawn)	-3.0%
CNCCN(C)c1nc(-c2cccs2)nc2ccccc12	-6.6%
COc1ccc(-c2cc(NC=O)c3ncc(-c4ccccc4)n3c2)cc1OC	-27%
NCCCCC(C(=O)O)N(C(=O)OCc1ccccc1)C(=O)OCc1ccccc1 (stereo not drawn)	-1.1%
CCCCn1nnnc1-c1nc2ccccc2[nH]c1=O	3.0%
COC(=O)[C@]12CCCCC=C1N(CCC1=CCCCC1)C(=O)[C@H](CC(=O)N1CCN(C(=O)C3CC3)CC1)C2	0.5%
Cc1cccc(C)c1N1CCN(C(c2cc3ccccc3o2)c2nnnn2C(C)(C)C)CC1 (stereo not drawn)	-0.7%
CNc1cc(-c2ccc(OC)c(OC)c2)ncn1	4.4%
COc1cc(OC)nc(Nc2nc(C(N)c3ccccc3Cl)cs2)n1 (stereo not drawn)	-2.6%
CCCCNC(=O)c1ccc2nc(-c3cccs3)c(-c3cccs3)nc2c1	10%
CC1(C(=O)Nc2ccc3c(c2)OCCO3)CN(S(C)(=O)=O)CC(=O)N1CCCn1ccnc1 (stereo not drawn)	-2.0%
CCOC(=O)[C@]12CCCC=C1N(CCC1=CCCCC1)C(=O)[C@H](CC(=O)NCc1cccc(C(F)(F)F)c1)C2	-0.6%

Continued:
molecule	ClpP mod
CCCNC(=O)C1(C)CCN(Cc2cccc(OC(=O)c3ccccc3)c2)C1 (stereo not drawn)	-2.1%
CC(C)OC(=O)c1ccc2ccc(-c3ccccc3)nc2c1	-8.2%
CCCCNC(=O)C[C@@H]1C[C@@]2(C(=O)OCC)CCCC=C2N(CCc2ccc(OC)c(OC)c2)C1=O	2.0%
Cc1cc(C)n2c(Nc3ccc4c(c3)OCCO4)c(CCc3ccccc3)nc2n1	-2.5%
Clc1ccc(-c2nc3c4ccccc4ccn3c2CC2CCCCC2)cc1	-6.3%
CCOC(=O)[C@]12CCC=C1N(Cc1ccc3c(c1)OCO3)C(=O)[C@H](CC(=O)NCCc1ccccc1OC)C2	-3.0%
Cc1ccc(NC(=O)Nc2nnc([C@@H]3C[C@H](O)[C@@H](CO)O3)s2)cc1	0.8%
Cc1cccc(C)c1N1C(=O)c2ccccc2NC(=O)C1C(=O)NCCc1ccccc1 (stereo not drawn)	-10%
CC[C@@H]1CC2=C(C(=O)OC(C)(C)O2)[C@@H](CC)O1	-1.9%
CCCCCCCNc1ccc(/C=C/c2ccnc3ccccc23)cc1	-0.7%
COc1ccc2oc3c(ccc[n+]3C)c(=O)c2c1	-3.9%
CCOC(=O)[C@]12CCCC=C1N(CCC1=CCCCC1)C(=O)[C@H](CC(=O)N1CCN(C(=O)c3ccco3)CC1)C2	-1.8%

The list goes on:
molecule	ClpP mod
N#Cc1cccc(C(=O)C(=O)N2CCN(c3ccccc3)CC2)c1	-0.6%
CC1(C(=O)NCc2ccccc2)CN(S(C)(=O)=O)CC(=O)N1CC(F)(F)F (stereo not drawn)	1.3%
CCc1nc2ccc(C(=O)NCc3ccc4c(c3)OCO4)cn2c1N(CC)Cc1cccc(Br)c1	-20%
CCOC(=O)C1=CC[C@@H](c2ccccc2)N(S(=O)(=O)c2ccc(C)cc2)[C@@H]1C#N	-1.7%
C=C(CC[C@]12OC(C(=O)O)C(O)(C(=O)O)C(C(=O)O)(O1)C(OC(=O)/C=C/[C@@H](C)C[C@@H](C)CC)C2O)[C@@H](OC(C)=O)[C@H](C)Cc1ccccc1 (stereo partly drawn)	0.3%
COc1cc2c(NC3CCN(C)CC3)nc(N3CCCN(C)CC3)nc2cc1OCC1CCNCC1	4.6%
CC(C)c1ccc(Nc2nc(Nc3ccc(Cl)cc3)nc(N3CCOCC3)n2)cc1	3.3%
COc1ccc(-c2ccc(C(=O)NCc3cccs3)c3occc23)c(C)c1	4.4%
Cc1cc2c(c(=O)o1)C1(C)CC(C)(O2)c2c(cc(C)oc2=O)O1	0.1%
COc1ccccc1-c1csc(C(O)(c2ccccc2)C(F)(F)F)n1 (stereo not drawn)	-1.6%
COC(=O)[C@]12CCCCC=C1N(Cc1ccccc1)C(=O)[C@H](CC(=O)NCc1ccccc1)C2	-4.4%
COc1ccc(-c2cnc(C(O)c3ccc(CN4CCCCC4)cc3)[nH]2)cc1 (stereo not drawn)	0.0%

(list continues)
molecule	ClpP mod
O=C(NC1CCCC1)C1C(c2ccc(C(F)(F)F)cc2)=Nc2ccccc2N1C(=O)c1cccc2ccccc12 (stereo not drawn)	-30%
CCOC(=O)[C@]12CCCC=C1N(Cc1cccc3ccccc13)C(=O)[C@H](CC(=O)NCC1CCCCC1)C2	2.5%
COc1cc(/C=C/c2ccc3ccccc3n2)cc(OC)c1OC	4.5%
C=CCOC(=O)N1CCC2CC1c1c(-c3ccc(C(F)(F)F)cc3)cccc12 (stereo not drawn)	2.3%
COCCCNC(=O)/C=C/[C@H]1O[C@@H](n2cnc3c(NC(=O)c4ccccc4)ncnc32)[C@H](O)[C@@H]1O	-0.1%
CCOC1=C2[C@@H](CN(S(=O)(=O)c3ccc(C)cc3)[C@H]2c2ccccc2F)[C@H]2C(=O)N(C3CCCCC3)C(=O)[C@H]2C1	-2.1%
O=[N+]([O-])c1cc(Cl)ccc1Nc1nc(Nc2ccc(Cl)cc2[N+](=O)[O-])nc(N2CCOCC2)n1	-1.8%
CCOC(=O)[C@]12CCCC=C1N(Cc1cccc3ccccc13)C(=O)[C@H](CC(=O)NCCc1ccccc1OC)C2	-9.4%
NC(c1csc(Nc2ccc(C(=O)NCCCO)cn2)n1)C1CCCCC1 (stereo not drawn)	-22%
CN(C)c1ccc(-c2ccnc3c2CC(C)(C(=O)NCc2cccs2)O3)cc1 (stereo not drawn)	4.3%
CC(C)C(N)c1csc(NC(=O)Nc2ccccc2C(C)(C)C)n1 (stereo not drawn)	0.1%
Cc1cc(C(O)c2ncc(-c3ccccc3F)[nH]2)ccc1F (stereo not drawn)	-0.2%

(cont.)
molecule	ClpP mod
COC(=O)[C@]12CCCCC=C1N(Cc1cccc3ccccc13)C(=O)[C@H](CC(=O)N1CCN(C(=O)c3ccco3)CC1)C2	1.3%
CC(C)N1CCCC(C)(C(=O)Nc2nc3ccccc3[nH]2)C1 (stereo not drawn)	0.6%
O=c1[nH]c(SCc2ccc(OC(F)(F)F)cc2)nc2c1CCC2	0.9%
CNc1ncnc2c1ncn2[C@H]1CN(Cc2ccc(F)cc2)C[C@@H](CO)O1	-3.3%
COCCNC(=O)C1(C)CCCN(CCC(=O)c2ccc(Br)cc2)C1 (stereo not drawn)	-1.8%
CCCCCCn1c(SCC#N)nc2ccccc2c1=O	-0.1%
CCc1nc2c(OCc3cccc(Cl)c3)cccn2c1N(C)C(=O)C1CC1	-10%
CC1(C(=O)NS(=O)(=O)c2cccc(F)c2)CCN1C(=O)c1ccccc1CCc1ccccc1 (stereo not drawn)	0.3%
COc1cccc(Sc2nc(N(C)C)ncc2S(=O)(=O)c2ccc(Cl)cc2)c1	-16%
O=C(NCc1cccnc1)c1cc(C2CCCCN2S(=O)(=O)c2cccs2)on1 (stereo not drawn)	0.7%
O=C(Nc1ccc(F)c(Cl)c1)C1Cc2c(-c3ccccc3Oc3ccccc3)ccnc2O1 (stereo not drawn)	-6.8%
Cc1c(C(=O)NCc2ccccc2C(F)(F)F)sc(=O)n1Cc1ccc(Cl)c(Cl)c1	-0.3%

Compounds from the list above containing a cyano group:
molecule	ClpP mod
N#Cc1cccc(C(=O)C(=O)N2CCN(c3ccccc3)CC2)c1	-0.6%
CCOC(=O)C1=CC[C@@H](c2ccccc2)N(S(=O)(=O)c2ccc(C)cc2)[C@@H]1C#N	-1.7%
CCCCCCn1c(SCC#N)nc2ccccc2c1=O	-0.1%

Some of the entries above in a different format:
COc1ccc(-c2cc(NC=O)c3ncc(-c4ccccc4)n3c2)cc1OC
  ClpP mod: -27%

CCCCNC(=O)C[C@@H]1C[C@@]2(C(=O)OCC)CCCC=C2N(CCc2ccc(OC)c(OC)c2)C1=O
  ClpP mod: 2.0%

Cc1cc(C(O)c2ncc(-c3ccccc3F)[nH]2)ccc1F (stereo not drawn)
  ClpP mod: -0.2%

The list goes on:
molecule	ClpP mod
CN(Cc1ccccc1)c1ccc(/C=C/c2sc3ccccc3[n+]2C)cc1	1.3%
O=C1CCC[C@@H]2CC(N(Cc3cc4ccccc4s3)c3ccccc3)C[C@@H]3CCN1[C@H]23 (stereo partly drawn)	0.0%
COc1ccc(CC(N)c2csc(NC(=O)c3ccccc3OC)n2)cc1 (stereo not drawn)	0.3%
O=C(c1ccc(Cl)c(Cl)c1)N1CCC(=O)N([C@H](COCc2cccc(C(F)(F)F)c2)Cc2ccccc2)CC1	-0.7%
COC(=O)[C@]12CCCCC=C1N(CCC1=CCCCC1)C(=O)[C@H](CC(=O)NCCC(C)C)C2	-2.7%
CCOC(=O)N1CCN(C(C(=O)NC2CCCC2)c2ccco2)CC1 (stereo not drawn)	2.2%
OCc1ccccc1-c1ccc2nncn2c1	-4.4%
O=C(Cc1ccc2ccccc2c1)NO	1.7%
CC(C)NC(=O)Cn1nnc(-c2ccccc2)c1COc1ccc2ccccc2c1	0.3%
CCOc1nc(C#N)nc(N2CCOCC2)n1	-2.8%
O=C(Nc1ccc2c(c1)OCCO2)C(c1cc2ccccc2o1)N1CCN(c2ccc(F)cc2)CC1 (stereo not drawn)	-19%
CC(C)N1CCC1(C)C(=O)Nc1ccccc1OC(F)F (stereo not drawn)	-0.1%

Further structures
molecule	ClpP mod
COc1ncccc1-c1ccc2nncn2c1	-27%
O=C(NC1CCCC1)C1C(c2ccccc2)=Nc2ccccc2N1C(=O)c1cc(Cl)cc(Cl)c1 (stereo not drawn)	-13%
CSc1ccc(Cn2c(C)c(C(=O)NCc3cccc(C)c3)sc2=O)cc1	-10%
COCCN1C(=O)CN(S(C)(=O)=O)CC1(C)C(=O)NC(C)C (stereo not drawn)	0.7%
Nc1[nH]c(C(=O)c2ccccc2)c(-c2ccncc2)c1C(=O)NCc1ccc(Cl)cc1	0.0%
COc1cc(Br)c(CC(=O)NO)cc1OC	0.6%
CC(C)(C(=O)N1CCC1(C)C(=O)NS(=O)(=O)c1cccc(F)c1)c1ccccc1 (stereo not drawn)	0.5%
CN(C)C1CN(Cc2cn(Cc3ccc(C(F)(F)F)cc3)nn2)S(=O)(=O)C1 (stereo not drawn)	-2.6%
COc1ccc(NC(=O)c2cc(-c3ccc(F)cc3OC(C)C)n[nH]2)cn1	22%
CCc1nc2ccc(C(=O)NCCC(C)C)cn2c1N(CC)CCN(C)C	-5.7%
COC(=O)CC1CC2(C(=O)OC)c3[nH]c4ccccc4c3CCN2C1=O (stereo not drawn)	-3.8%
CCOc1ccc(-c2cc(C(=O)NC3CCCCC3)[nH]n2)c(C)c1	-1.0%

Other results.
molecule	ClpP mod
Cc1ccc(CNCc2cn[nH]c2-c2ccc(C)cc2)cc1	1.6%
CSCCC(c1nc2ccccc2[nH]1)n1c(-c2ccc(C)cc2)nc2ccccc21 (stereo not drawn)	-5.2%
CC(=O)c1cccc(S(=O)(=O)N2CCN(c3nc(-c4cccs4)nc4ccccc34)CC2)c1	-22%
CC(=O)Nc1ccc(CN2C(=O)C(C)(C)ON=C2c2ccc(NC(C)=O)cc2)cc1	-3.8%
CN(C)Cc1csc(Nc2ccc(C(F)(F)F)cn2)n1	-6.7%
Cc1cc(C)nc(Nc2nc(C(N)c3ccccc3)cs2)n1 (stereo not drawn)	-2.4%
COc1ccc(NC(=O)C2(C)CCN2Cc2ccc(OC(C)C)cc2)cc1OC (stereo not drawn)	0.0%
COc1ccc(C(C(=O)NCc2ccccc2)n2c(=O)c(-c3cc4ccccc4[nH]3)nc3ccccc32)cc1 (stereo not drawn)	-11%
O=C(NCc1ccccc1)c1cc(C2CCCN(C(=O)c3ccccc3)C2)on1 (stereo not drawn)	-2.2%
